Assay outcomes deposited in PubChem by several laboratories.
T cruzi repl – T. cruzi replication inhibition. 300,000 compounds, 1.4% hits. T. cruzi beta-gal in NIH3T3, luminescence, 90 h. inhibition, % (no concentration beside the values);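 active means mean inhibition across valid replicates above about 55%, limit read from the data; inconclusive means mean below that limit but half or more replicates reach it; inactive means mean below it, under half of replicates reach it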;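 further: signal also drops with host cell toxicity which is not excluded here; 0% = plate median of DMSO wells and 100% = zero luminescence signal; higher percent means less beta-gal luminescence so fewer parasites; stock transfer was 50 nL into about 50 µL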
A1 inh – inhibitors of the anti-apoptotic protein A1, read as caspase activation | MEF A1-2A-BIM cells, Caspase-Glo 3/7 luminescence, 3 h; percent of clofoctol response, vehicle zero | caspase activation, % (test concentration not listed) | 330,000 compounds, 0.066% hits;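 active means over half of replicate activation scores above 10%, or exactly half above 10 with the replicate mean above 10; inconclusive means replicate mean below 10 yet half the replicates above 10; inactive means over half of replicates below 10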;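 further: wells of about 30 µL received 50 nL stock; many hits fall short of the cut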
Beta cell apopt – blocks beta cell apoptosis; protection from apoptosis, % (test concentration not listed); INS-1E cytokine-induced death, ATP luminescence, 48 h; percent of positive-control rescue, neutral wells zero; 300,000 compounds, 0.8% hits;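 active means all replicates at 75% or more, or half of them and the mean; inconclusive means half reach 75% but not the mean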;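 further: 0% = cytokine-treated negative control wells and 100% = positive control rescue; higher means more ATP so stronger rescue from cytokine killing; wells of about 40 µL received 100 nL stock; the first replicate is given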
Beta2AR agonist – agonists of human beta-2 adrenergic receptor inducing internalization; P07550; Am2.2-beta2AR cells, FAP receptor internalization, flow cytometry; reference of the scale not given here; response, % (test concentration not listed); 340,000 compounds, 0.43% hits; AID 504454;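 active means response above a set limit, near 3 SD of response in nonfluorescent compounds, cut at about 42% in these data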;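 further: stock transfer was 100 nL into about 11 µL; a reference agonist was the positive control; negative values mostly stem from fluorescent compounds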
Target sequence (P07550 whole entry, looked up): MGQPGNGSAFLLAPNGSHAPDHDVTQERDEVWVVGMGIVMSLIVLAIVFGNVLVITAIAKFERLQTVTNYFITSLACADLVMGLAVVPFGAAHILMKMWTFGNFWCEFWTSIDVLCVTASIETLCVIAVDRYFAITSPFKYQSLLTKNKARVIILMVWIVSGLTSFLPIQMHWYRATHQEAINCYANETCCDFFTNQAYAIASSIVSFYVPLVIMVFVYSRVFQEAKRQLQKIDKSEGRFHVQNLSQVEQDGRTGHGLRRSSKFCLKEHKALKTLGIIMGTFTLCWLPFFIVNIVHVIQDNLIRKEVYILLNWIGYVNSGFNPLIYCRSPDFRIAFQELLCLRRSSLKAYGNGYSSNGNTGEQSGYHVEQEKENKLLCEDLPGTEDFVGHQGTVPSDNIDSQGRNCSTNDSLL
ALR inh – human ALR oxidase inhibition via reduced H2O2; P55789; purified ALR, DTT oxidation, H2O2 HRP-luminol luminescence; inhibition, % (no concentration beside the values); 290,000 compounds, 3.8% hits; AID 485317;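 active means mean and each replicate at 75% or more; inconclusive means only one of the two met; inactive means neither met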;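 further: stock transfer was 7.5 nL into about 7.5 µL; 0% = neutral wells and 100% = wells with inactivated enzyme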
Target sequence (P55789 whole entry, looked up): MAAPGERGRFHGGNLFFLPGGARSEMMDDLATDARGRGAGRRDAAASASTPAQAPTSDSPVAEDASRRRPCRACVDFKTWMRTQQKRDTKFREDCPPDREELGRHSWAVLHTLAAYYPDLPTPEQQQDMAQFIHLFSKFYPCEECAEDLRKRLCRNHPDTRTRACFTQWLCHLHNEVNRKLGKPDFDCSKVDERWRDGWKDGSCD
LANA-H2B inh – blocks KSHV LANA binding to histone H2A/H2B | Q9QR71 | 320,000 compounds, 0.6% hits | inhibition, % (no concentration beside the values) | cell-free LANA-H2A/H2B peptide, fluorescence polarization; in the data active means inhibition mostly above about 10%, no sharp cut-off; inactive means mostly below about 6.7%;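 further: stock transfer was 7.5 nL into about 10 µL; 0% = median of vehicle wells and 100% = median of positive control wells; one replicate is shown; the record names a cut of 25% in any replicate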
Ecoli rRNA inh – inhibitors of bacterial rRNA selective over humanized ribosomes | E. coli WT GFP vs humanized-ribosome RFP mutants, fluorescence, 24 h; hits give low values; DMSO median 0, no signal -100 | GFP signal change (wild-type ribosome), % (concentration not given with the values) | 350,000 compounds, 1.6% hits;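 active means significant combined selectivity score with lowered wild-type GFP, culture density cut under 30%, mutant RFP and density less affected; inactive means any of these conditions unmet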; further: one replicate is shown; some compounds called inactive have numbers as strong as hits
Calb FLC – affects C. albicans growth with fluconazole; C. albicans CaCi-2 (fluconazole-resistant clinical isolate) + fluconazole, Alamar Blue growth, 48 h; growth inhibition, % (no concentration beside the values); 300,000 compounds, 0.57% hits; AID 1979;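 active means most replicates above 75%; inconclusive means exactly half above 75%; inactive means most below 75%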;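 further: all wells also contain fluconazole at 8 µg/ml as a sub-toxic cotreatment; 0% = median of DMSO wells and 100% = median of geldanamycin control wells; wells of about 8 µL received 7.5 nL stock; the first replicate is given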
Ecoli rRNA inh OD600 – second read-out of Ecoli rRNA inh, no call of its own (marks repeat the call); OD600 change, %; measured here: OD600 growth;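 optical density of the mix in the first replicate; 0 = DMSO median and -100 = no signal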
Ecoli rRNA inh RFP – recorded beside Ecoli rRNA inh, whose call it bears; RFP signal change, %; measured here: RFP humanized mutant strains;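 first replicate; 0 = DMSO median and -100 = no signal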
Active calls of the source: *; ? = inconclusive; nt = not tested or not shown; & = joins results of further samples.

SMILES | T cruzi repl | A1 inh | Beta cell apopt | Beta2AR agonist | ALR inh | LANA-H2B inh | Ecoli rRNA inh | Ecoli rRNA inh OD600 | Ecoli rRNA inh RFP | Calb FLC
CCCN1CN=C(NS(=O)(=O)c2ccc(C)cc2)NC1 | -5.7 | -0.6 | 1.4 | 2.0 | -10.0 | -2.7 | 6.8 | 12.1 | -1.2 | 3.8
CCC(OC(=O)c1ccco1)C(=O)NCc1ccc2c(c1)OCO2 (centres undefined) | -0.3 | -0.2 | 3.3 | 4.7 | nt | -1.6 | 13.7 | 10.1 | 4.8 | -29.1
CC(=O)Nc1cccc(C(=O)N/N=C/c2cccc(C)n2)c1 | -0.5 | 1.6 | -4.6 | -13.0 | -0.4 | -4.8 | 8.6 | 9.8 | 13.9 | 5.0
COc1cccc(NC(=O)N2CCC(C(=O)Nc3ccc(C)cc3C)CC2)c1 | -7.6 | 0.0 | -1.7 | 0.8 | -14.0 | -0.1 | nt | nt | nt | -6.0
O=C(Nc1ccc2nc(-c3ccc(Br)o3)[nH]c2c1)c1ccco1 | 28.7 | -1.2 | 18.2 | 4.1 | -8.1 | -2.4 | nt | nt | nt | -12.8
CC(=O)N1CCc2cc(Br)cc(S(=O)(=O)CCC(=O)Nc3c(C)n(C)n(-c4ccccc4)c3=O)c21 | -19.9 | 0.7 | nt | 16.8 | -1.2 | 1.4 | 12.7 | 13.2 | -4.4 | 3.8
Cc1ccccc1NC(=O)/C(C#N)=C/c1ccc[nH]1 | -6.2 | 0.1 | -4.3 | -13.1 | -4.8 | 1.9 | -2.4 | 1.4 | -2.9 | -16.4
CCC(C)Nc1nc(Cl)nc(N(C#N)CN2C(=O)c3ccccc3S2(=O)=O)n1 (centres undefined) | -13.4 | 0.7 | -5.6 | 13.5 | 63.0 | -1.1 | 19.6 | 20.0 | 1.2 | 0.2
COc1cccc(N2CCN(C(=O)c3nc4nc(C)cc(C)n4n3)CC2)c1 | -4.7 | -0.7 | -4.7 | -13.3 | 31.7 | 2.4 | 12.3 | 10.4 | 2.2 | 9.0
COc1cc(OC)cc(C(=O)Nn2cc(C(=O)Nc3c(F)cccc3F)c3ccccc3c2=O)c1 | -0.8 | 0.2 | 2.4 | -0.8 | -10.5 | -1.2 | -1.9 | -1.1 | 0.0 | 49.9
O=C(/C=C/Nc1ccc(Br)cn1)c1cccc(OC(F)F)c1 | nt | -2.0 | 2.0 | 3.0 | -1.8 | nt | nt | nt | nt | nt
COc1ccc(C(=O)N2C(=S)NC(=O)/C2=C\c2ccc(C)cc2)cc1 | -3.0 | 1.1 | nt | 4.9 | -0.2 | -3.1 | -6.0 | 3.1 | 36.8 | 16.7
COc1ccc(-c2noc(N3CCCC(C(=O)Nc4ccc(F)cc4F)C3)n2)cc1 (centres undefined) | 1.5 | nt | -1.0 | -1.7 | -13.6 | -4.7 | 11.0 | 6.0 | 0.5 | -7.9
O=C(CN1CCN(c2ccc(F)cc2)CC1)Nc1ccccc1 | -10.9 | 1.4 | -2.3 | 2.2 | nt | -4.0 | 6.2 | 6.0 | -0.4 | 4.5
CCc1n[nH]c(=S)n1/N=C/c1ccc(N(CC)CC)cc1 | -2.8 | 0.6 | -2.2 | 14.7 | 33.7 | -0.8 | 0.4 | 0.6 | 6.4 | 47.3
CCc1ccc(C(=O)C(C)OC(=O)c2cccc(S(=O)(=O)N3CCOCC3)c2)cc1 (centres undefined) | 3.0 | -0.3 | 5.0 | 12.5 | -2.2 | 7.2 | -4.9 | -20.4 | -1.0 | 33.5
O=C(Nc1ccc(N2CCN(C(=O)c3ccccc3)CC2)cc1)c1ccc2c(c1)OCCO2 | 14.5 | -1.6 | nt | 14.3 | 22.2 | 0.1 | 9.3 | 10.7 | 2.8 | -2.8
O=C(Nc1cccc2ccccc12)NC1CCCc2ccccc21 (centres undefined) | 2.4 | -0.1 | 0.4 | 9.8 | -3.9 | -0.5 | nt | nt | nt | 3.0
COCCn1c(=O)[nH]c2cc(C(=O)N3CCN(c4cc(C)ccc4C)CC3)ccc2c1=O | 0.6 | 0.6 | -6.1 | 2.5 | -12.7 | -1.8 | 0.4 | 4.2 | -0.7 | -6.8
COc1ccc(CN2CCN(S(=O)(=O)c3ccccc3)CC2)c(OC)c1OC | 12.7 | 0.5 | -8.9 | 0.8 | -3.0 | -2.7 | nt | nt | nt | -4.2
CCN(C(=O)CSc1cc(C)c2cccc(C)c2n1)C1CCS(=O)(=O)C1 (centres undefined) | -9.4 | 0.5 | -15.1 | 8.0 | nt | 2.1 | -7.3 | -15.2 | -7.1 | -3.8
CCOc1ccc(N2CC(C(=O)NCc3nnnn3-c3ccc(C)c(C)c3)CC2=O)cc1 (centres undefined) | -9.9 | -1.2 | 0.7 | 0.4 | 0.3 | -1.3 | 2.8 | 7.6 | 1.8 | 2.9
COc1ccccc1CC(=O)N1CCN(S(=O)(=O)c2cccs2)CC1 | -7.7 | -0.3 | 4.7 | 2.4 | 1.8 | -3.4 | 5.6 | 27.4 | 4.3 | 7.6
Clc1ccc(OCCn2cnc3ccccc32)c(Cl)c1 | -10.4 | -0.4 | -11.6 | -14.5 | -5.9 | 3.3 | nt | nt | nt | 15.8
COc1cc(C(=O)NCc2ccc(-c3nc4ccccc4s3)cc2)cc(OC)c1OC | 1.9 | -1.9 | -7.7 | -12.5 | 0.6 | 1.4 | nt | nt | nt | 15.5
CC1CN(S(=O)(=O)c2ccc(CN3C(=O)c4cccnc4C3=O)cc2)c2ccccc2O1 (centres undefined) | -6.9 | -0.5 | 1.7 | 2.8 | -4.4 | 0.3 | 5.4 | 7.6 | -0.4 | 0.6
COC(=O)c1ccccc1N1C(=O)C2C(C1=O)[C@H]1C=C[C@@H]2C1 (some centres undefined) | -6.6 | -0.5 | -0.7 | 2.4 | -2.3 | 2.9 | nt | nt | nt | 6.9
CCCCOc1cccc(C(=O)Nc2ccc(S(=O)(=O)Nc3cc(C)on3)cc2)c1 | -5.0 | -0.7 | nt | -8.3 | 26.5 | 2.9 | 4.9 | -4.1 | 0.5 | -6.2
C[C@H](CO)N1C[C@H](C)[C@@H](CN(C)C(=O)NC2CCCCC2)Oc2c(NC(=O)c3ccncc3)cccc2C1=O | nt | 0.7 | -2.4 | 1.8 | 3.8 | -0.7 | -2.2&9.7 | 6.6&4.0 | 0.1&-4.1 | nt
COc1ccc(C)cc1NC(=O)CNC(C)C(=O)Nc1ccc(C(C)=O)cc1 (centres undefined) | 0.9 | 1.0 | -2.7 | 3.3 | -6.4 | -3.6 | 0.7 | -0.4 | 8.4 | 0.5
COC(=O)C1=C(C)NC(=O)NC1c1c(O)ccc2ccccc12 (centres undefined) | -1.0 | -0.1 | nt | 3.4 | -31.2 | 3.9 | -0.8 | 4.3 | -2.0 | 1.0
CSc1ccc(/C=N/NC(=O)c2cccc(Cl)c2)cc1 | 0.6 | 0.1 | 6.1 | -1.7 | nt | -4.5 | 7.1 | 11.8 | -1.7 | 3.0
O=C(N[C@@H](c1ccccc1)[C@H](O)c1ccccc1)[C@@H]1CCCN1C(=O)OCc1ccccc1 | -5.8 | 1.6 | -0.4 | 1.0 | -1.6 | -4.4 | 2.0 | 10.0 | 6.8 | -1.0
O=[N+]([O-])c1ccc(S(=O)(=O)NCCCc2ccccc2)cc1 | 23.1 | 0.8 | 2.2 | 9.0 | -11.6 | -0.3 | -1.1 | -18.3 | -2.8 | -18.9
COC(CN(C)C(=O)c1cn(C)c2ccc(S(=O)(=O)N(C)C3CCCCC3)cc2c1=O)OC | -1.3 | -0.9 | -10.1 | -1.6 | 8.4 | 5.4 | 7.8 | 11.8 | 0.1 | -4.3
CC(C)C(=O)NC(=S)N1CCc2ccccc21 | -9.5 | 0.4 | -3.7 | 5.9 | 0.4 | 5.6 | nt | nt | nt | -6.4
CCC(C)Sc1nc2c(cnn2-c2ccc(F)cc2)c(=O)[nH]1 (centres undefined) | -7.8 | 0.4 | -1.2 | 6.7 | -1.3 | 0.1 | -1.3 | 4.9 | -1.0 | -0.9
CCOc1ccc(-c2cc(C(=O)N/N=C(\C)c3cccnc3)c3ccccc3n2)cc1 | 7.8 | -3.7 | 4.1 | -13.7 | 31.0 | -3.1 | -3.0 | 3.8 | -1.1 | -0.5
CCc1nnc(NC(=O)CSc2nnc(COc3ccc(C)cc3)n2-c2ccccc2)s1 | 9.5 | -0.3 | 2.4 | 2.4 | -17.0 | -1.1 | nt | nt | nt | 8.3
CC(C)(C)NC(=O)C(=O)NCc1ccncc1 | 1.9 | -0.7 | -1.4 | 0.0 | -4.0 | 2.5 | 8.1 | 4.9 | -1.1 | -9.2
CN(C(=O)COC(=O)c1cc(S(=O)(=O)N2CCOCC2)ccc1Cl)C1CCS(=O)(=O)C1 (centres undefined) | 1.7 | 0.0 | 3.1 | 2.0 | -0.4 | 2.3 | 1.8 | -1.0 | 3.3 | -3.7
O=C(Nc1ccc(OCC(F)(F)C(F)F)c(C(F)(F)F)c1)c1ccccc1O | 6.5 | ? | 122.0* | 21.0 | -1.2 | 0.4 | nt | nt | nt | 6.9
c1ccc(Cn2c(NCc3ccncc3)nc3ccccc32)cc1 | -3.4 | 0.1 | 5.8 | -6.5 | 9.9 | -1.8 | -4.3 | -6.1 | -3.3 | 5.0
Cc1cc(Cl)ccc1NC(=S)NCc1ccc(S(N)(=O)=O)cc1 | -3.3 | -0.2 | nt | 10.4 | 0.7 | 5.8 | -37.6 | -43.8 | -6.7 | 18.5
c1ccc(N/N=C(\Cc2ncc[nH]2)c2ccccc2)cc1 | -1.4 | -0.4 | -6.7 | 2.4 | 98.7* | 6.7 | 3.5 | 10.2 | 4.6 | 114.2*
O=c1[nH]c(C2CCCN(S(=O)(=O)c3cccc(F)c3)C2)nc2c1nnn2Cc1ccccc1 (centres undefined) | -3.2 | 0.7 | nt | -4.2 | -8.6 | 5.6 | 3.7 | -10.3 | 0.4 | -0.2
CCCCn1c(SCC(=O)NC2CCCC2)nc2ccccc2c1=O | -3.4 | 0.9 | -3.7 | 0.6 | -26.4 | -2.4 | 11.5 | 7.8 | 3.6 | -4.0
COCCNC(=O)C(c1ccccc1)N(Cc1cccs1)C(=O)Cn1nnc2ccccc21 (centres undefined) | 9.0 | 0.6 | 2.5 | 13.1 | -3.3 | 2.2 | 4.4 | -0.5 | -0.1 | 0.9
O=C(Nc1ccccc1N1CCCC1)c1cc(Cl)ccc1Cl | 9.4 | 0.0 | 5.7 | -1.4 | nt | 1.3 | -3.3 | -6.8 | -0.5 | 4.1
CCC(=O)N1CCc2cc(S(=O)(=O)CCC(=O)N3CCN(c4ccc(Cl)cc4)CC3)ccc21 | 13.4 | 0.4 | 7.5 | -11.7 | 38.1 | 7.0 | 4.8 | 10.5 | 1.1 | 26.3
CC1CCC(NC(=O)COC(=O)c2n[nH]c(=O)c3ccccc23)CC1 (centres undefined) | -2.2 | 0.5 | -1.6 | -0.7 | -18.8 | 0.1 | 16.4 | 15.4 | 3.5 | -6.1
Cc1cc(C(=O)CSc2nc3ccccc3o2)c(C)n1CC1CCCO1 (centres undefined) | 6.1 | -0.2 | 28.4 | -1.4 | 0.0 | -1.0 | nt | nt | nt | -4.1

Only part of the results is shown; rates above refer to the full screens.
